Compound activity deposited in PubChem by National Center for Advancing Translational Sciences (NCATS).
TRPML1 agonist: human mucolipin-1 channel agonism; Q9GZU1; TRPML1-expressing cells, Ca2+ dye fluorescence, FDSS; host cell line not named in the record; reference of the full effect not given here; activation, % (no concentration beside the values); actives 0.12% (n = 410,000); in the data active = activation above about 50%; inconclusive = about 30% to 50%; inactive = below about 30%; further: 0% is about no effect; the text of the record puts the active cut at 80%
Target sequence (Q9GZU1 whole entry, looked up): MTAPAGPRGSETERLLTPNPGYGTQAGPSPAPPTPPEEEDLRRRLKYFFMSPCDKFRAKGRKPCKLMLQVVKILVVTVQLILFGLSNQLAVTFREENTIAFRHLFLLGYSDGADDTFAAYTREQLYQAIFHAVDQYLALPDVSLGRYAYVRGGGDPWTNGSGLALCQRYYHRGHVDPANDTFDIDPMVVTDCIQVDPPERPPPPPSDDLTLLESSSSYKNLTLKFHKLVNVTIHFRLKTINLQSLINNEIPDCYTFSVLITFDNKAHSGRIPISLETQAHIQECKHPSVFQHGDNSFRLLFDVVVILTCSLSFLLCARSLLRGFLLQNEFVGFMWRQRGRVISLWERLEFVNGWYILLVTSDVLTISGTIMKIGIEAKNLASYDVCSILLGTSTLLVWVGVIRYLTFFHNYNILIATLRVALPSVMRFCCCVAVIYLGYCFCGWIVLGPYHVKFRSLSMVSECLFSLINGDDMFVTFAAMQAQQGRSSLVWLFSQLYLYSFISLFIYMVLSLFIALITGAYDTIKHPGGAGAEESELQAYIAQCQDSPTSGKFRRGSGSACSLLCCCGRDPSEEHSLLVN
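In this qHTS format, compounds were pin-transferred onto Ca8-dye-loaded TRPML1-DL cells induced with Tet overnight, and intracellular Ca2+ fluorescence was recorded kinetically for 110 s after a 10 s baseline. A subsequent 4uM final 54-4 (EC80) addition followed by a second 110 s read served as the antagonist phase.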
Six1-Eya2 inh: Six1/Eya2 interaction inhibition; Q15475+O00167; AlphaScreen GST-Six1/His-Eya2 binding, biochemical; hits give low values; control for the full effect not named in the record; activity change, % (concentration not given with the values); actives 0.56% (n = 360,000); AID 651725; in the data active = activity change below about -65%; inconclusive = about -30% to -65%; inactive = above about -30%; further: on the % scale 0 is the no-effect control and ±100 the full control effect
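Compounds are tested against tagged Six1 and Eya2 proteins bridged by glutathione donor and nickel acceptor beads; after a one-hour incubation at 37 °C without light, AlphaScreen emission is recorded.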
TRPV1 potentiator: enhances activation of the human vanilloid receptor TRPV1; Q8NER1; TRPV1-expressing cells, Fluo-8 calcium influx, capsaicin EC20 potentiation; host cell line not named in the record; control for the full effect not named in the record; potentiation, % at 8.33 µM; actives 0.02% (n = 320,000); active means potentiation above 80%; inconclusive means 30% to 80%; inactive means below 30%; further: 0% is about no effect
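Cells expressing TRPV1 were dye-loaded with Fluo-8 and read kinetically: 10 s baseline, 3 min after compound (agonist portion), then 2 min after EC20 capsaicin (allosteric enhancer portion). Calcium-bound dye fluorescence at 480/520 nm.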
CtBP-E1A inh: CtBP/E1A binding inhibition; AlphaScreen GST-E1A/His-CtBP binding, 1536-well; hits give low values; control for the full effect not named in the record; activity change, % (test concentration not listed); actives 0.49% (n = 340,000); in the data active means activity change below about -65%; inconclusive means about -30% to -65%; inactive means above about -30%; further: on the % scale 0 is the no-effect control and ±100 the full control effect; compound concentration not given in the record
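Protein mix (5X: 125 nM each GST-E1A, His-CtBP) was incubated with pinned compound 2 h at 37 deg C in dark, in 50 mM Tris pH 8.0 buffer with 300 mM NaCl. Glutathione donor and nickel acceptor beads followed; AlphaScreen signal read after 1 h.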
TRPML1 blocker: human mucolipin-1 channel inhibition. TRPML1-inducible cells, Ca2+ dye fluorescence, FDSS; hits give low values; inhibition of EC80 agonist-evoked calcium signal. Q9GZU1. actives 0.02% (n = 390,000). AID 624415. activity change, negative = inhibition, % (concentration not given with the values); in the data active means activity change below about -50%; inconclusive means about -30% to -50%; inactive means above about -30%;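 further: stimulus is agonist 54-4 at its EC80 concentration; on the % scale 0 is the no-effect control and ±100 the full control effect; compound concentration not given in the record; the text of the record puts the active cut at -80%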
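Calcium fluorescence in TRPML1-DL cells induced overnight with Tet: a 110 s read after compound pin addition, then a 110 s antagonist read after challenge with 54-4 at 4 uM final (EC80).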
D2 potentiator: potentiates the human D2 dopamine receptor allosterically | actives 0.23% (n = 360,000) | AID 624464 | P14416 | DiscoveRx D2 beta-arrestin cells, luminescence, 90 min; 100% = 57 uM dopamine signal | potentiation, % (concentration not given with the values); active = potentiation of 50% or more; inconclusive = 30% to 50%; inactive = 30% or less;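 further: compound concentration not given in the record; tested on top of an EC20 dose of dopamine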
Target sequence (P14416 whole entry, looked up): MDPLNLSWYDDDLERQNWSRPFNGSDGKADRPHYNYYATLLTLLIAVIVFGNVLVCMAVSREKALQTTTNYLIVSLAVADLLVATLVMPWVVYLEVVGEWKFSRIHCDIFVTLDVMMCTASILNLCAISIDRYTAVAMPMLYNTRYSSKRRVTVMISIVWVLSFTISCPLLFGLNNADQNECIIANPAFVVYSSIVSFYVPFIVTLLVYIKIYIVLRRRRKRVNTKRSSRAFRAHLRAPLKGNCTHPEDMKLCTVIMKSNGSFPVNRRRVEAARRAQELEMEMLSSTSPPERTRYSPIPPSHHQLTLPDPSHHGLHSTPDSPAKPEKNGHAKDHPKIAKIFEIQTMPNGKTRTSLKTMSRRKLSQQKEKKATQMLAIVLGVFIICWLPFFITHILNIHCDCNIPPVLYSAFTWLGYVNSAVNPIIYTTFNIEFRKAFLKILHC
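PathHunter beta-arrestin assay in DiscoveRx D2 cells. Compounds were added with an EC20 of dopamine (50 nM final) for 90 min at 37 deg C. Luminescence was read 1 h after detection reagent, with 57 uM dopamine as the EC100 control.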
Starred values were filed as active, the others as inactive.

For COc1cccc(NC(=O)Cn2c(SCC(=O)N3CCOCC3)nc3ccccc32)c1 the results were TRPML1 agonist 0.8, Six1-Eya2 inh 2.6, TRPV1 potentiator -25.5, CtBP-E1A inh 1.0, TRPML1 blocker -4.0 and D2 potentiator 0.4.
For CCCCn1c(CCCNC(=O)CC)nc2ccccc21 the results were TRPML1 agonist 0.2, Six1-Eya2 inh 5.5, TRPV1 potentiator 5.5, CtBP-E1A inh -4.0, TRPML1 blocker 2.1 and D2 potentiator -12.2.
For O=C(CN1CCc2ccccc21)NCc1ccc2c(c1)OCO2 the results were TRPML1 agonist 0.6, Six1-Eya2 inh -1.8, TRPV1 potentiator -8.5, TRPML1 blocker 24.8 and D2 potentiator -9.6.
For O=C(OCC#CCSc1nc2ccccc2o1)c1ccco1 the results were TRPML1 agonist 2.0, Six1-Eya2 inh 14.2, TRPV1 potentiator -11.4, CtBP-E1A inh 18.0, TRPML1 blocker 0.8 and D2 potentiator -2.4.
C=CCn1c(SCC(=O)Nc2ccc(OC)cc2)nnc1-c1cnccn1 was read as TRPML1 agonist 0.0, Six1-Eya2 inh 2.9, TRPV1 potentiator -10.2, CtBP-E1A inh 2.1, TRPML1 blocker -0.7 and D2 potentiator -3.2.
Screening COc1ccc(Cl)cc1-c1nc(SCC(=O)NC(C)(C)C)n[nH]1 returned TRPML1 agonist 1.3, Six1-Eya2 inh -10.2, TRPV1 potentiator 11.5, CtBP-E1A inh -17.0, TRPML1 blocker -3.8 and D2 potentiator -2.9.
For O=C(NCc1cccnc1)C1c2ccccc2C(=O)N1C1CCCCCCC1 (centres undefined) the results were TRPML1 agonist 1.3, Six1-Eya2 inh 5.5, TRPV1 potentiator 11.4, CtBP-E1A inh 3.8, TRPML1 blocker 1.6 and D2 potentiator -10.1.
`CC(=O)Nc1ccc(Nc2cc(C)c3ccccc3n2)cc1` gave Six1-Eya2 inh 17.0, TRPV1 potentiator 17.3 and D2 potentiator -17.0.
Nc1nc2ccc(Cl)cc2cc1C(=O)NCc1ccc(Oc2ccccc2)cc1 was read as TRPML1 agonist -0.2, Six1-Eya2 inh 1.7 and CtBP-E1A inh 10.0.
`CC(=O)N1CCN(C(=O)c2ccc(OC3CCN(Cc4ccccn4)CC3)cc2)CC1` gave TRPML1 agonist 0.5, Six1-Eya2 inh -0.8, TRPV1 potentiator 9.3, CtBP-E1A inh -0.9, TRPML1 blocker -11.1 and D2 potentiator -3.2.
`C/C(CC(=O)Nc1cc(C)ccn1)=N\NC(=O)C(=O)Nc1cccc(C)c1` gave TRPML1 agonist 1.8, Six1-Eya2 inh 16.9, TRPV1 potentiator 5.2, CtBP-E1A inh 0.0, TRPML1 blocker -14.4 and D2 potentiator -2.9.
For CCCCCC(=O)N(O)C1CC(=O)N(c2ccccc2)C1=O (centres undefined) the results were TRPML1 agonist -0.7, Six1-Eya2 inh -0.4, TRPV1 potentiator 3.2, CtBP-E1A inh -1.9, TRPML1 blocker 4.1 and D2 potentiator -30.2.
C#CCNc1c2c(nc3nnnn13)CCCC2 was read as TRPML1 agonist -0.5, Six1-Eya2 inh 0.2, TRPV1 potentiator 0.6, CtBP-E1A inh -4.0, TRPML1 blocker -1.0 and D2 potentiator -4.2.
`CC(OC(=O)Cc1c(F)cccc1Cl)C(=O)NC1(C#N)CCCCC1` (centres undefined) gave TRPML1 agonist -0.9, Six1-Eya2 inh -1.7, TRPV1 potentiator -23.1, CtBP-E1A inh -5.2, TRPML1 blocker 8.0 and D2 potentiator -2.7.
Screening CCCc1cc(-n2cnc3ccccc32)n2c(nc3ccccc32)c1C#N returned TRPML1 agonist 0.3, Six1-Eya2 inh 10.9, TRPV1 potentiator 10.8, CtBP-E1A inh -1.4, TRPML1 blocker 8.1 and D2 potentiator -6.1.

Overlap with the part before: 2 entries, followed by the next part.
`CC(OC(=O)Cc1c(F)cccc1Cl)C(=O)NC1(C#N)CCCCC1` (centres undefined) gave TRPML1 agonist -0.9, Six1-Eya2 inh -1.7, TRPV1 potentiator -23.1, CtBP-E1A inh -5.2, TRPML1 blocker 8.0 and D2 potentiator -2.7.
Screening CCCc1cc(-n2cnc3ccccc32)n2c(nc3ccccc32)c1C#N returned TRPML1 agonist 0.3, Six1-Eya2 inh 10.9, TRPV1 potentiator 10.8, CtBP-E1A inh -1.4, TRPML1 blocker 8.1 and D2 potentiator -6.1.
Screening COc1ccc(S(=O)(=O)N2CCN(C(=O)NCc3ccc(C)cc3)CC2)cc1 returned TRPML1 agonist 0.5, Six1-Eya2 inh -8.3, TRPV1 potentiator -7.5, CtBP-E1A inh 2.2, TRPML1 blocker -5.1 and D2 potentiator -2.5.
`C=CCc1cc(C)ccc1OCCCn1ccnc1` gave TRPML1 agonist 0.3, Six1-Eya2 inh -9.6, TRPV1 potentiator -2.5, CtBP-E1A inh -10.9, TRPML1 blocker 15.5 and D2 potentiator -7.6.
COC(=O)c1ccc(N2CCN(S(=O)(=O)c3c(C)cc(C)cc3C)CC2)c([N+](=O)[O-])c1 was read as TRPML1 agonist -0.2, Six1-Eya2 inh inconclusive, TRPV1 potentiator -6.0, CtBP-E1A inh -19.1, TRPML1 blocker 20.9 and D2 potentiator -4.5.
`Cc1sc2ncn(CC(=O)N3CCN(c4ccccc4)CC3)c(=O)c2c1S(=O)(=O)N1CCOCC1` gave TRPML1 agonist -0.5, Six1-Eya2 inh 4.8, TRPV1 potentiator 26.7, CtBP-E1A inh -6.8, TRPML1 blocker 10.1 and D2 potentiator -6.3.
`CCCCCCCN1CCN=C1N(C)C` gave TRPML1 agonist -0.6, Six1-Eya2 inh 8.0, TRPV1 potentiator 8.9, CtBP-E1A inh 6.3, TRPML1 blocker -2.8 and D2 potentiator -8.0.
`O=C(COc1ccccc1[N+](=O)[O-])N/N=C/c1ccncc1` gave TRPML1 agonist 1.8, Six1-Eya2 inh 3.7, TRPV1 potentiator -4.9, CtBP-E1A inh -0.2, TRPML1 blocker 9.6 and D2 potentiator 1.0.
Screening Cc1ccc(F)cc1NC(=O)CCNC(=O)c1ccc([N+](=O)[O-])cc1 returned TRPML1 agonist 1.1, Six1-Eya2 inh 47.4, TRPV1 potentiator 1.1, CtBP-E1A inh 0.7, TRPML1 blocker 20.4 and D2 potentiator 0.1.
For COc1ccc(CNC(=O)C[C@H]2C[C@H](C(=O)N3CCCCC3)[C@@]3(CCc4ccccc4)c4[nH]c5ccc(Cl)cc5c4CCN3C2=O)cc1OC the results were TRPML1 agonist -0.7, Six1-Eya2 inh -15.3, CtBP-E1A inh 0.3 and TRPML1 blocker -1.8.
CCN(CC(=O)Nc1ccccc1C(F)(F)F)C(=O)CCS(=O)(=O)c1ccc(C)cc1 was read as TRPML1 agonist 0.2, Six1-Eya2 inh 3.4, TRPV1 potentiator 1.1, CtBP-E1A inh 3.2, TRPML1 blocker -0.1 and D2 potentiator -9.9.
`CCCn1nc(C(=O)NC2CCCc3ccccc32)c2ccccc2c1=O` (centres undefined) gave TRPML1 agonist 3.2, Six1-Eya2 inh 2.6, TRPV1 potentiator 2.3, CtBP-E1A inh -4.0, TRPML1 blocker 0.3 and D2 potentiator 2.2.
Cc1ccc(S(=O)(=O)N2CCCCC2)cc1NC(=O)COC(=O)c1ccc2c(c1)OCO2 was read as TRPML1 agonist -0.1, Six1-Eya2 inh 0.1, TRPV1 potentiator inconclusive, CtBP-E1A inh 4.5, TRPML1 blocker 28.3 and D2 potentiator -8.1.
O=C(NCc1ccc(Cl)cc1)C1CCN(S(=O)(=O)c2cccnc2)CC1 was read as TRPML1 agonist -0.7, Six1-Eya2 inh 1.7, TRPV1 potentiator 5.9, CtBP-E1A inh 0.8, TRPML1 blocker 3.5 and D2 potentiator 4.9.
`BrC(=C\c1ccccc1)/C=N/N1CCN(c2ccccn2)CC1` gave TRPML1 agonist -1.8, Six1-Eya2 inh -13.6, TRPV1 potentiator 6.6, CtBP-E1A inh 4.8, TRPML1 blocker -4.5 and D2 potentiator -7.3.
For COc1ccc([N+](=O)[O-])cc1NC(=O)C(C)OC(=O)CC1CCCC1 (centres undefined) the results were TRPML1 agonist inconclusive, Six1-Eya2 inh -7.3, TRPV1 potentiator 10.7, CtBP-E1A inh -6.1, TRPML1 blocker 5.1 and D2 potentiator -0.9.
For CCCCNC(=S)NCCN1CCN(C(=S)NCCCC)CC1 the results were TRPML1 agonist -0.6, Six1-Eya2 inh -1.9, TRPV1 potentiator -1.2, CtBP-E1A inh -13.2, TRPML1 blocker -3.3 and D2 potentiator -2.0.
`Cc1ccc([N+](=O)[O-])cc1N(CC(=O)NCC1CCCO1)S(C)(=O)=O` (centres undefined) gave TRPML1 agonist 0.2, Six1-Eya2 inh -0.4, TRPV1 potentiator 14.0, CtBP-E1A inh 9.0, TRPML1 blocker 11.3 and D2 potentiator -1.8.
For CSc1ncccc1C(=O)OCC(=O)NC(N)=O the results were TRPML1 agonist 0.0, Six1-Eya2 inh 2.1, TRPV1 potentiator -21.9, CtBP-E1A inh 1.4, TRPML1 blocker 5.9 and D2 potentiator -5.9.
Screening CCO[C@H]1OC(C(N)=O)=C[C@@H](c2ccccc2)[C@@H]1CCCO returned TRPML1 agonist -0.6, Six1-Eya2 inh 5.3, TRPV1 potentiator -0.3, CtBP-E1A inh 3.1, TRPML1 blocker 1.3 and D2 potentiator -7.5.
Screening CC1=C(C#N)C(Nc2ccc(Cl)cn2)(C(F)(F)F)C(=O)N1 (centres undefined) returned TRPML1 agonist 0.5, Six1-Eya2 inh 1.7, TRPV1 potentiator -15.8, CtBP-E1A inh 0.4, TRPML1 blocker -8.1 and D2 potentiator -2.8.
`CC1=C(C(=O)Nc2cccc(C)n2)C(c2ccc3c(c2)OCO3)C2=C(CC(c3ccco3)CC2=O)N1` (centres undefined) gave TRPML1 agonist 0.5, Six1-Eya2 inh -8.0, TRPV1 potentiator -6.3, CtBP-E1A inh -2.6, TRPML1 blocker -5.9 and D2 potentiator 14.3.
For CCOc1ccccc1CN1CCN(Cc2cccc3c2OCO3)CC1CCO (centres undefined) the results were TRPML1 agonist -0.5, Six1-Eya2 inh -9.1, TRPV1 potentiator 0.9, TRPML1 blocker -2.7 and D2 potentiator -6.8.
Screening Cc1ccc(C)c(N2CCN(C(=O)CCCN3C(=S)NC(C)(C)CC3C)CC2)c1 (centres undefined) returned TRPML1 agonist -0.8, Six1-Eya2 inh -27.0, TRPV1 potentiator -2.2, CtBP-E1A inh 2.4, TRPML1 blocker 8.5 and D2 potentiator -13.0.
Screening O=C(CSc1ncnc2c1oc1ccccc12)c1cccs1 returned TRPML1 agonist 0.3, Six1-Eya2 inh 9.5, TRPV1 potentiator 22.1, CtBP-E1A inh 0.6, TRPML1 blocker -2.9 and D2 potentiator -1.5.
For O=C(CSc1nc(-c2ccccc2)cs1)Nc1ccccc1[N+](=O)[O-] the results were TRPML1 agonist 0.5, Six1-Eya2 inh -16.4, TRPV1 potentiator 10.1, CtBP-E1A inh -3.8, TRPML1 blocker 7.4 and D2 potentiator -18.4.
COC(=O)C1=C(CSc2nc3c(cc2C#N)CN(C)CC3)OC(N)=C(C#N)C1c1ccc(F)cc1 (centres undefined) was read as TRPML1 agonist 1.5, Six1-Eya2 inh -26.0, TRPV1 potentiator 8.3, CtBP-E1A inh -27.0, TRPML1 blocker -8.7 and D2 potentiator -1.0.
